From PubChem BioAssay
VDR inh: Inhibitors of the vitamin D receptor (VDR): qHTS; Potency, µM, without a hit: max response, negative = inhibition, usual class: inhibitors; VDR-SRC2-3 peptide fluorescence polarization, 2 h; Vitamin D3 receptor (Homo sapiens), P11473; 0.93% of 400,000 active; active = well fitted inhibition curve with a large enough effect; inconclusive = small, poorly fitted or top-dose-only effect, or another doubt; inactive = no such curve, though single readings can be large or run the other way; also: series mostly up to about 120 µM
Target sequence (P11473 whole entry, looked up): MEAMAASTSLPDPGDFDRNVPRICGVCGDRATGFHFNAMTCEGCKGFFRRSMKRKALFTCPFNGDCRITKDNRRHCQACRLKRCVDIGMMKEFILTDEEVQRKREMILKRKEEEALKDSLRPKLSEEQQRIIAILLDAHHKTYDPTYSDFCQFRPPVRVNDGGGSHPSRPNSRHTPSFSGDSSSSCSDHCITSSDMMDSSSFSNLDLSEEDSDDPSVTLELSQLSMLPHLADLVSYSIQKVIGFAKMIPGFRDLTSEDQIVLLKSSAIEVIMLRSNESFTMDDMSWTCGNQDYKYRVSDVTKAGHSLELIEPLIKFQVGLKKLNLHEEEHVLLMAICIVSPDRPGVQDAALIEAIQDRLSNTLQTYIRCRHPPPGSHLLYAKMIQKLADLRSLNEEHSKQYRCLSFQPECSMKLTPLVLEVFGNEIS
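Inhibition of the VDR/SRC2-3 peptide interaction is quantified by fluorescence polarization. Compounds (23 nl, pintool) incubate with the reagents for 2 hours at ambient room temperature.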
* hit, by the source's call; ? = inconclusive; & = joins results of further samples; [ ] = another dose, or the depositor's remark. % is scaled to controls: 0 for no effect and ±100 for the full control effect; potency is read from the fitted curve at half-maximal effect. Not all compounds are listed (hit frequency here may not be typical).

Preview:
VDR inh	compound
-13%	O=C(NCCCN1CCOCC1)c1cc(Cl)ccc1Cl
12%&3%	Cc1ccc(CCNC(=O)CCSCc2ccc(Cl)cc2)cc1
-21%	COc1ccccc1N1CCN(CC(=O)Nc2ccnn2C2CCCC2)CC1
-15%	CCOc1ccc(CN2CCN(Cc3ccon3)CC2CCO)cc1 (configuration not stated)
1%	Cc1ccc(CNS(=O)(=O)c2c(C)nc3sc(C)cn3c2=O)cc1

Main list, repeating the preview:
VDR inh	compound
-13%	O=C(NCCCN1CCOCC1)c1cc(Cl)ccc1Cl
12%&3%	Cc1ccc(CCNC(=O)CCSCc2ccc(Cl)cc2)cc1
-21%	COc1ccccc1N1CCN(CC(=O)Nc2ccnn2C2CCCC2)CC1
-15%	CCOc1ccc(CN2CCN(Cc3ccon3)CC2CCO)cc1 (configuration not stated)
1%	Cc1ccc(CNS(=O)(=O)c2c(C)nc3sc(C)cn3c2=O)cc1
20%&7%	Cc1cccc2sc(N(CCCN(C)C)C(=O)c3ccc(Cl)s3)nc12
4%	CCCCCCCCN=C1NC(=O)CS1
20%	CC1CCN(C(=O)CC(NC(=O)c2ccccc2Cl)c2ccccc2)CC1 (configuration not stated)
-18%	Cc1ccn(CCC(=O)NC2CCCc3c2cnn3-c2cccc(C)c2C)n1 (configuration not stated)
-12%	CC(=O)c1ccc(CCCCc2ccc(C(C)=O)cc2)cc1
-4%	COCc1cc(C)nc(SCC[N+](C)(C)CC(=O)Nc2cccc(C)c2)c1C#N
-4%	Cc1ccc(S(=O)(=O)NC(C)(C)CN2CCNCC2)cc1
-1%	CCCN1CNc2c(c(=O)[nH]c(=S)n2CCc2ccc(C)cc2)C1
?	COc1cc(/C=C/[N+](=O)[O-])ccc1OC(=O)c1cc2ccccc2oc1=O
?	O=C(N/N=C\CCc1ccccc1)c1ccco1
0%	Cc1c(OC(C(=O)O)c2ccccc2)ccc2c(-c3ccccc3)cc(=O)oc12 (configuration not stated)
-10%	O=C(CN1C(=O)C(=O)N(C2CCCC2)C1=O)Nc1ccc(Cl)cc1C(F)(F)F
-12%	COc1ccc(-n2nc3ccc(NC(=O)c4ccc(-c5cc(Cl)ccc5Cl)o4)cc3n2)cc1
-13%	CC(OC(=O)CCCC(=O)Nc1ccccc1)C(=O)c1ccccc1 (configuration not stated)
-4%	Cc1ccc(-n2ncc3c(NCCCn4ccnc4)ncnc32)c(C)c1
-11%	COc1ccccc1N1C(=O)S/C(=C\c2ccc(C)s2)C1=O
4%	CCn1ncc([N+](=O)[O-])c1C(=O)NC1CCCCC1
11%	O=C(CCS(=O)(=O)c1ccc(F)cc1)Nc1nnc(-c2ccc(F)cc2)o1
7%	COc1cccc(CNCCc2c[nH]c3ccccc23)c1OCc1ccc(F)cc1
-9%	CN1/C(=C/C(=O)COC(=O)C2COc3ccccc3O2)C(C)(C)c2ccccc21 (configuration not stated)

(more compounds)
VDR inh	compound
-21%	COc1ccccc1C(=O)NC(CCSC)C(=O)OC(C)C(=O)NC1CC1 (configuration not stated)
2%	CCOC(=O)c1cccc(C(=O)Nc2nc3ccc(OC)cc3s2)n1
8%	NC(=O)c1ccsc1NC(=O)COC(=O)c1cc(=O)[nH]c2ccccc12
-6%	CCC1CO/C(=C(\C(Cl)=C(Cl)Cl)[N+](=O)[O-])N1 (configuration not stated)
4%	CC(=O)Oc1ccc(-c2nc3c(C)cccc3c(=O)o2)cc1
3%	FC(F)(F)c1cccc(NC(=S)Nc2ccc(Cl)cc2Cl)c1
-5%	COc1ccc(C(=O)N2CCN(c3ccc(C)c(C)c3)CC2)cc1OC
-1%	O=S(=O)(c1ccc2c(c1)CCCC2)N1CCN(c2nc(-c3ccccc3)nc3ccccc23)CC1
-3%	Cc1cc(C(=O)NNC(=O)C(C)(C)Oc2ccc(Cl)cc2)c(C)o1
0%	CCC(=O)N1CCc2cc(Br)cc(S(=O)(=O)N3CCCC(C(=O)NCc4ccc(F)cc4)C3)c21 (configuration not stated)
9%	CCOc1ccc(C2C(=O)N(C3CCCCCC3)CC(=O)N2CCC2=CCCCC2)cc1OC (configuration not stated)
34%[activator]	O=C1/C(=C/c2ccccc2)CCCc2ccccc21
12%	CC1CCCN(c2cc3c(cc2F)c(=O)c(S(=O)(=O)c2cccc(Cl)c2)cn3Cc2ccccc2)C1 (configuration not stated)
-15%	CCC(C)NC(=O)C1=C(C)C(=O)OC12CCC(C)CC2 (configuration not stated)
-15%	COc1cc(-c2noc(C)c2/C=C/c2cccc([N+](=O)[O-])c2)cc(OC)c1OC
?	O=C(N/N=C/c1coc2ccccc2c1=O)c1cc(Br)c(O)c(Br)c1
-8%	Cc1cc(N2CCOCC2)cc(C)[n+]1[O-]
13%	COc1ccc(NC(=O)/C(C#N)=C/c2ccc(OCc3ccccc3F)cc2)cc1
-4%	CC(=O)c1ccc(NS(=O)(=O)c2c(C)cc(C)cc2C)cc1
10%	CC(C)Cc1cc(CNC(=O)C2CCC(=O)N(CCc3cccc(F)c3)C2)on1 (configuration not stated)
-11%	O=C(c1ccc2c(c1)OCO2)N1CCN(S(=O)(=O)c2ccc(Br)cc2Cl)CC1
1%	CCOC(=O)C(=O)N1CCN(c2nc(-c3ccc(Cl)cc3)cs2)CC1
11%	CCCCn1c2c(c(=O)n(C)c1=O)C(c1ccc(OC)cc1)N1CCCCCC1=N2 (configuration not stated)
-5%	CC(=O)C1=C(C)OC(N)=C(C#N)C1c1cccc2ccccc12 (configuration not stated)
79µM*	CSC1=NC(=O)/C(=C\c2cccc3ccccc23)S1

VDR inh: hit marks shown above.
VDR inh	compound
79µM*	CSC1=NC(=O)/C(=C\c2cccc3ccccc23)S1

In another format: entries from further up.
CCCCn1c2c(c(=O)n(C)c1=O)C(c1ccc(OC)cc1)N1CCCCCC1=N2 (configuration not stated)
  VDR inh = 11%
CC(=O)C1=C(C)OC(N)=C(C#N)C1c1cccc2ccccc12 (configuration not stated)
  VDR inh = -5%
CSC1=NC(=O)/C(=C\c2cccc3ccccc23)S1
  VDR inh = 79µM*

(list continues)
VDR inh	compound
5%	CCOC(=O)c1ccccc1NC(=O)CSc1cn(CC(=O)N2CCCCC2)c2ccccc12
4%	CCN(CCCNC(=O)c1ccc(N2CCCC2=O)cc1)c1cccc(C)c1
1%	CN(C)/C=N/c1ncc(C(=O)c2ccc(Cl)cc2)s1
-14%	Cc1ccc(N(CC(=O)NCCc2ccc(F)cc2)S(=O)(=O)c2ccc(Cl)c([N+](=O)[O-])c2)c(C)c1
-5%	COc1cccc(C2CCCN2Cc2nc(CCC(C)C)no2)c1 (configuration not stated)
12%	COc1ccc(NC(=O)Cn2cnc3c(oc4ccccc43)c2=O)cc1OC
-19%	COc1ccc(CCNC(=O)C2CC3Cn4c(nc5ccccc54)C3N2C)cc1 (configuration not stated)
-12%	CC1(C)CC(=O)c2cc3c(nc2C1)CC(C)(C)CC3=O
-10%	O=C(OCCN1CCOCC1)C(c1ccccc1)c1ccccc1
13%	COc1ccc(-n2cc(-c3ccccc3)c3c(N4CCCC(C)C4)ncnc32)cc1 (configuration not stated)
-14%	Cc1sc2nc(CN3CCOCC3)nc(Cl)c2c1C
-2%	CC(=C(CCOP(=O)(O)O)SC(=O)c1ccccc1)N(C=O)Cc1cnc(C)nc1N
1%	Cc1ccc(Nc2nc(-c3ccccc3)nc3ccccc23)cc1
8%	O=C(N/N=C\c1ccc[nH]1)C1COc2ccccc2O1 (configuration not stated)
-8%	Cc1cccc(CSc2nc3[nH]ncc3c(=O)[nH]2)c1
8%	CCN1CCC(N(Cc2ccc3c(c2)OCO3)C(=O)Nc2ccc(Br)c(C)c2)CC1
-5%	CN(C(=O)c1ccco1)c1nc(-c2ccc(F)cc2)cs1
6%	CCC1CCCCN1C(=S)NC(=O)c1cc(S(=O)(=O)N2CCOCC2)ccc1C (configuration not stated)
-4%	c1ccc2nc(N3CCOCC3)c(N3CCCC3)nc2c1
-12%	O=[N+]([O-])c1ccc(Oc2ccc(/C=N/O)cc2)nc1
12%	Cc1ccccc1CCNC(=O)C1CCN(S(=O)(=O)c2ccc3c(ccn3C)c2)CC1
-23%	O=C(CCCN1C(=O)NC2(CCCC2)C1=O)Nc1ccc(F)cc1
5%	O=C(NC(=S)N1CCCC(C(F)(F)F)C1)c1ccc(F)cc1 (configuration not stated)
12%	O=S(=O)(c1cccc(C(F)(F)F)c1)N1CCN(C(=S)NC2CC2)CC1
-14%	CCOC(=O)C1CCN(C(=O)c2cccc(S(=O)(=O)N3CCc4ccccc43)c2)CC1

Continued.
VDR inh	compound
-3%	COc1ccccc1NC(=O)N(Cc1ccco1)C1CCN(C(C)=O)CC1
-15%	Cn1nc(N2CCN(S(=O)(=O)c3ccccc3)CC2)c(=O)n(C)c1=O
26%	COc1ccc(C2NC(=O)c3ccccc3O2)cc1 (configuration not stated)
5%	CCCOc1ccc(C2C(C(=O)c3ccc(C)o3)=C(O)C(=O)N2CCN2CCOCC2)cc1OC (configuration not stated)
9%	COc1ccc(C/C(N)=N/OC(=O)c2ccc(Cl)cc2)cc1
11%	CC(=O)Nc1cc(NC(C)=O)ncn1
-3%	CCc1ccc(C(=O)NNC(=O)c2ccc3c(=O)n4c(nc3c2)CCC4)cc1
-10%	Cc1cccc(Cn2c(=O)oc3ccc(C)cc32)c1
8%	COC(=O)c1c(C)noc1-c1snnc1C
4%	COc1cc(CN2CCNC(=O)C2CC(=O)N2CCCN(C(C)=O)CC2)cc(OC)c1 (configuration not stated)
23%	O=C(Nc1cccc2ccccc12)N1CCCN(c2c(Cl)cncc2Cl)CC1
9%	Cc1nc(SCC(=O)Nc2ccc(S(=O)(=O)N3CCOCC3)cc2)c2c(C)c(C)sc2n1
-5%	COc1c(Br)cc([N+](=O)[O-])c(OC)c1C(=O)NC(=O)Nc1cc(Cl)cc(Cl)c1
-21%	Cc1ccc2nc3cc([N+](=O)[O-])cc([N+](=O)[O-])c3cc2c1
-23%	Cc1cc(C)nc(N2CCC(C(=O)NNC(=O)c3ccc(Cl)cc3)CC2)n1
-8%	O=C(COC(=O)c1ccc(Br)o1)NC1CCCc2ccccc21 (configuration not stated)
14%	CC(=O)Nc1ccc(S(=O)(=O)N2CCC(NC(=O)C(Cc3cccc(F)c3)NC(C)=O)CC2)cc1 (configuration not stated)
5%	COc1ccccc1CNC(=O)COC(=O)c1cc(S(=O)(=O)N2CCOCC2)ccc1Cl
-8%	CCOc1ccc(NC(=O)c2nsc(Cl)c2Cl)cc1
-2%	CCCNC(=O)Cn1c(=O)n(C)c2ccccc21
-8%	CCOC(=O)C1(Cc2ccccc2)CCN(Cc2cn(CC(=O)OC)c3ccccc23)CC1
-9%	COc1ccccc1C(C)NC(=O)CCC(=O)N1CCN(S(=O)(=O)c2ccc(Cl)cc2)CC1 (configuration not stated)
6%	CC1CC(C)CN(c2cc3c(cc2[N+](=O)[O-])C(=O)N(c2ccccc2)C3=O)C1 (configuration not stated)
-16%	COc1cccc(CC(=O)Nc2sc3c(c2C(N)=O)CCCC3)c1
-6%	CCOc1ccc(N(CC(=O)NC2CCCCC2)C(=O)Cn2nnc(-c3ccc(C)o3)n2)cc1

Remaining list, next part.
VDR inh	compound
3%	COC(=O)Cc1n[nH]c(=O)c2ccccc12
0%	COc1ccc(C(O)C(CC(=O)NCCCOC(C)C)C(=O)NCCCOC(C)C)cc1OC (configuration not stated)
-9%	CSCC(=O)N1CCC(n2nccc2NC(=O)CCc2ccccc2)CC1
-1%	Cc1cc([N+](=O)[O-])ccc1NCc1ccc2ccccc2c1
-10%	COC(=O)c1ccc2c(=O)[nH]c(CSc3nnc(C(F)(F)F)n3C)nc2c1
-3%	CCCCN(C(=O)c1[nH]c(C)c(C(=O)OCC)c1C)c1c(N)n(CCCC)c(=O)[nH]c1=O
-10%	CCCNC(=O)Nc1ccc(C(F)(F)F)cc1
-4%	O=c1c(Cc2c(F)cccc2Cl)c(O)ccn1CCc1ccccn1
-13%	Cc1ccc(CN2C(=NC(=O)CCC(=O)O)SC3CS(=O)(=O)CC32)cc1 (configuration not stated)
-16%	O=C(CCN1C(=O)C2C3C=CC(C3)C2C1=O)Nc1ccc2ncccc2c1 (configuration not stated)
-3%	COc1cc2c(C(=O)O)c(C)n(C)c2c2ccccc12
-3%	COc1ccc(S(=O)(=O)c2c(Nc3c(C)cccc3C)sc(C(=O)c3ccc4c(c3)OCO4)c2N)cc1
-26%	S=c1[nH]nc(NCCc2ccccc2)s1
-17%	CC(C)(C)c1cc(CCC(=O)NNC(=O)c2ccco2)cc(C(C)(C)C)c1O
5%	COc1ccc(CCn2c(C(C)C)nc3c(c(=O)c4ccccc4n3C)c2=O)cc1
-12%	NC(=O)C1CCN(CC(=O)Nc2ccc3c(c2)OCCO3)CC1
8%	CCOc1cc(CNCCO)c(Cl)cc1OCC(=O)NCCc1ccccc1
6%	CC(C)(C)NC(=O)C(OC(=O)c1ccco1)c1ccc(Cl)cc1 (configuration not stated)
7%	COc1ccc(NC(=S)Nc2ccccc2F)c(OC)c1

Sorted by formula weight (low to high): 3 of the compounds above.
VDR inh	compound
-1%	Cc1cc([N+](=O)[O-])ccc1NCc1ccc2ccccc2c1
-12%	NC(=O)C1CCN(CC(=O)Nc2ccc3c(c2)OCCO3)CC1
6%	CC(C)(C)NC(=O)C(OC(=O)c1ccco1)c1ccc(Cl)cc1 (configuration not stated)
